NS1 inh: inhibitors of influenza NS1 protein function; S. cerevisiae slowed by influenza A NS1, growth recovery by OD600; Potency, µM (titrated, usually from 46.1 µM), without a hit: top-dose activity, positive = more growth; actives 0.4% (n = 270,000); active means well fitted rising curve with a large enough effect; inconclusive means small, poorly fitted or top-dose-only effect; inactive means no such curve, though single readings can be large or run the other way; also: nearly all actives have a fitted effect of over 50% in size
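Compounds were scored for reversing the slow growth caused by influenza A NS1 in S. cerevisiae, measured by optical density at 600 nm. Assay medium contained 2% galactose at pH 6.0; NS1-free yeast of the same strain were the positive control.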
Lassa entry inh: blocks Lassa virus binding to or entry into cells | AID 540256 | actives 1.2% (n = 300,000) | Lassa virus pseudotype entry inhibition, cell reporter; control for the full effect not named in the record | Potency, µM (highest dose often 37.9 µM), without a hit: top-dose activity change, negative = inhibition, most hits filed as inhibitors; active means well fitted inhibition curve with a large enough effect; inconclusive means small, poorly fitted or top-dose-only effect, or effect the other way; inactive means flat fitted curve, though single readings scatter; tested in HEK293 cells; also: % is scaled to controls: 0 for no effect and ±100 for the full control effect; nearly all actives have a fitted effect of over 50% in size; luciferase read-out
StopGo reporter: FMDV 2A StopGo reporter, luciferase signal | human cells with a luciferase reporter of 2A StopGo recoding; control for the full effect not named in the record | Potency, µM (titrated, usually from 57.9 µM), for inactives: top-dose signal change, negative = less light | actives 1.2% (n = 410,000); active = well fitted falling curve with a large enough effect; inconclusive = small, poorly fitted or top-dose-only effect; inactive = no such curve, though single readings can be large or run the other way; tested in HEK293T cells; also: % is scaled to controls: 0 for no effect and ±100 for the full control effect; nearly all actives have a fitted effect of over 45% in size; luciferase light after 4 h
RE007 growth inh: less growth of the S. pombe RE007 Vpr strain; S. pombe RE007 Vpr strain, BacTiter-Glo ATP luminescence, 24 h; control for the full effect not named in the record; Potency, µM (highest dose often 92.2 µM), for the others: at the top dose activity change, negative = less growth; actives 0.21% (n = 360,000); AID 651644; active = well fitted falling curve with a large enough effect; inconclusive = small, poorly fitted or top-dose-only effect; inactive = no such curve, though single readings can be large or run the other way;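 also: % is scaled to controls: 0 for no effect and ±100 for the full control effect; nearly all actives have a fitted effect of over 50% in size; the assay follows cell death caused by Vpr and the record does not say whether a fall means rescue or toxicity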
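Fission yeast RE007 carrying one integrated HIV-1 vpr copy, seeded at OD 0.01 in PMG+AL medium with 23 nL pinned compound. Grown 24 h at 30 degrees; viability read by BacTiter-Glo luminescence after 5 min.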
SARS PLP yeast: SARS-CoV PLP inhibition in yeast. S. cerevisiae expressing SARS-CoV PLpro, growth rescue; control for the full effect not named in the record. Potency, µM (top dose mostly 32.9 µM), without a hit: top-dose activity, positive = growth rescue. actives 0.19% (n = 330,000); active means well fitted rising curve with a large enough effect; inconclusive means small, poorly fitted or top-dose-only effect; inactive means no such curve, though single readings can be large or run the other way; also: 0% is about no effect; nearly all actives have a fitted effect of over 55% in size; growth read by luminescence after 48 h
Cruzain inh noDet: inhibitors of Trypanosoma cruzi cruzain without detergent. P25779. purified cruzain, Z-FR-AMC fluorescence, no detergent. Potency, µM, inactives show max response, negative = inhibition, usual class: inhibitors. actives 2.3% (n = 200,000). AID 1476;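 also: plate controls were enzyme without inhibitor for no effect and buffer without enzyme for full effect; nearly all actives have a fitted effect of over 40% in size; top concentration of the series not given in the record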
Target sequence (P25779 123-467 limits assumed): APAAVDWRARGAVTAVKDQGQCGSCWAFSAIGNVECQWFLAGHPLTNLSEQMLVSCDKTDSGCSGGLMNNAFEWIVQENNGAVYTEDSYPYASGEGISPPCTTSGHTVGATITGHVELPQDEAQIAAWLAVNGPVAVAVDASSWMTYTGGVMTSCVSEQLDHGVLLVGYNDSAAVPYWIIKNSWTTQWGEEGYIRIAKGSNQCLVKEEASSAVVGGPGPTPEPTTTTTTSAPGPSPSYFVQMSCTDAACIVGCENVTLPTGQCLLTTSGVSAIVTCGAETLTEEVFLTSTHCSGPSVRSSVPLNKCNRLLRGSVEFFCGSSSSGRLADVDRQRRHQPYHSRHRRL
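Purified cruzain at 1.5 nM, pre-incubated 15 min with compound at room temperature in 100 mM sodium acetate pH 5.5, 5 mM DTT, 0.00005% Triton X-100. Reaction started with 2 uM Z-FR-AMC; AMC fluorescence increase over 60 s gives rate.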
MARV entry inh: Marburg virus entry inhibition. AID 540276. Potency, µM (doses to about 37.8 µM), without a hit: at the top dose activity change, negative = inhibition, usual class: inhibitors. actives 1.8% (n = 300,000). Marburg virus pseudotyped entry inhibition, cell reporter; control for the full effect not named in the record; about a third of the inactives were read at about 46 µM; active = well fitted inhibition curve with a large enough effect; inconclusive = small, poorly fitted or top-dose-only effect, or effect the other way; inactive = flat fitted curve, though single readings scatter; tested in HEK293 cells; about a fifth of its hits are not listed in these tables; also: % is scaled to controls: 0 for no effect and ±100 for the full control effect; luciferase read-out
Cruzain inh Det: cruzain (T. cruzi) inhibition with detergent | AID 1478 | Potency, µM, inactives show max response, negative = inhibition, hits mostly inhibitors | actives 0.43% (n = 200,000) | P25779 | purified cruzain, Z-FR-AMC fluorescence, 0.01% Triton;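 also: plate controls were neutral wells for no effect and buffer without enzyme for full effect; nearly all actives have a fitted effect of over 40% in size; top concentration of the series not given in the record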
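Detergent-containing run (0.01% Triton X-100) in acetate buffer pH 5.5 with 5 mM DTT: enzyme at 1.5 nM final, 15 min compound preincubation at room temperature, then 2 uM Z-FR-AMC substrate. Activity taken as 60 s fluorescence increase at 360/450 nm.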
* = called active by the depositor; ? = inconclusive; / = not tested or not shown; & = joins results of further samples; [ ] = remark or other dose. Unless noted, calls follow the shape of the dose curve; as a rule, active = well fitted curve in the direction sought with a large enough effect; inconclusive = small, poorly fitted or top-dose-only effect, or another doubt; inactive = no such curve, though single readings can be large; an effect the other way counts as inactive or inconclusive. Potency is read from the fitted curve at half-maximal effect. Outcome played no part in choosing rows. Share with any hit: about 4.7%.

SMILES	NS1 inh	Lassa entry inh	StopGo reporter	RE007 growth inh	SARS PLP yeast	Cruzain inh noDet	MARV entry inh	Cruzain inh Det
O=C(CCCCO)CCCCCCCC[C@H]1N[C@H](CO)[C@H](O)[C@@H]1O[C@@H]1O[C@H](CO)[C@@H](O)[C@H](O)[C@H]1O	10%	13%	-12%	16%	-8%	-1%	0%	3.4%
COc1ccc(C2/C(=C(\O)c3ccc4c(c3)OCCO4)C(=O)C(=O)N2CCCN(C)C)c(OC)c1 (stereo not given)	?	-1%	-1%	-17%	9%	-13%	-2%[46.1 µM]	-4.8%
CCc1ccccc1N1CC(C(=O)Nc2nccs2)CC1=O (stereo not given)	4%	15%	-19%	4%	-3%	/	-3%[46.1 µM]	/
CCCC(=O)Nc1ccc(NC(=O)c2ccccc2Cl)nc1	-7%	1%	43%[activator]	13%	0%	6%	-29%[46.1 µM]	1.0%
Cc1sc2nc(CSc3nnnn3-c3ccc(Cl)cc3)[nH]c(=O)c2c1C	10%	?	0%	-25%	2%	-12%	-19%	-5.2%
CN(C)c1ccc(CNC(=O)CN2CCSc3ccc(S(=O)(=O)N(C)C)cc32)cc1	/	-28%[46.1 µM]	-13%	/	/	-1%	/	-4.3%
O=C(COc1ccccc1C(=O)c1cnn(-c2ccccc2)c1)Nc1ccc2ccccc2c1	9%	7%	-10%	-12%	-3%	?	?	-3.1%
Cc1ccc(C2NC(=S)NC3=C2C(=O)CCC3)cc1 (stereo not given)	/	-11%	8%	-25%	3%	/	18%[46.1 µM]	/
COc1ccc(CC(=O)OC(C)CN2CCOCC2)cc1 (stereo not given)	5%	7%	0%	0%	1%	/	6%[46.1 µM]	/
COc1ccccc1N1CC(C(=O)Nc2nnc(SC)s2)CC1=O (stereo not given)	7%	-21%	-10%	4%	-2%	/	24%	/
COc1ccc(C2/C(=C(/O)c3ccccc3)C(=O)C(=O)N2c2ccccn2)c(OC)c1 (stereo not given)	7%	15%	-16%	-3%[3.69 µM]	3%	-3%	3%	-6.1%
O=C(CN1C(=O)/C(=C\c2ccccc2Cl)Sc2ccccc21)NCCCN1CCOCC1	-5%	/	20%	-3%	1%	/	/	/
O=C(NCc1ccccn1)C1CCN(S(=O)(=O)c2cccs2)CC1	-3%	10%	4%	-2%	-7%	-1%	3%	7.8%
Cc1cc(Cl)ccc1OCCCC(N)=O	-3%	3%	-3%	?	1%	2%	1%	-1.7%
Cc1ccc(NC(=O)CCC(=O)NNC(=O)c2ccccc2Cl)c(C)c1	3%	0%	-2%	-13%	2%	/	11%[46.1 µM]	/
CCN(c1cccc(C)c1)S(=O)(=O)c1cc2c3c(c1)CCC(=O)N3CCC2	/	?	-16%	-7%	0%	/	?	/
Cc1ccc(C2CC(=O)N3CN(Cc4ccco4)CSC3=C2C#N)cc1 (stereo not given)	-7%	?	11%	-15%	6%	-5%	1%	-2.5%
Cc1nc2ccccc2c2oc(C(=O)NCc3ccc4c(c3)OCO4)cc12	-141%	/	?	9%	-3%	?	/	-1.6%
COCCNC(=O)c1cc2c(-c3ccccc3F)nn(C)c2s1	-12%	-18%	-26%	8%	-25%	-5%	-10%	-2.5%
Cc1cc(OC(C)C(=O)Nc2ccccc2C(=O)N2CCCC2)ccc1Cl (stereo not given)	5%	-23%	-8%	-15%	-2%	/	-19%	/
CCOC(=O)C(=O)NNc1ccc(Cl)cc1	/	-19%	-9%	79%	-13%	/	5%[46.1 µM]	/
COc1cccc(NC(=O)[C@H](CC(C)C)NC(=O)N2CCn3c2nc2ccccc23)c1	25%	/	-21%	6%	0%	/	/	/
Cc1ccccc1CCNC(=O)Cn1ccc2cc(S(=O)(=O)N3CCCC3)ccc21	18%	/	-7%	3%	-4%	/	/	/
COc1ccccc1C(=O)n1nc(-c2ccc(Cl)cc2)nc1N	-19%	0%	-8%	-8%	0%	-15%	19%	-9.1%
O=C(c1ccco1)N1CCN(c2ncnc3c2[nH]c2ccc(Cl)cc23)CC1	2.2µM*	?	/	/	?	?	?	14µM*
Cc1c(N2C(=O)/C(=C\C3CC=CCC3)SC2=S)c(=O)n(-c2ccccc2)n1C (stereo not given)	/	3%	25µM*	47%	-2%	/	?	/
N#CC1(c2ccccc2)CCCN1C(=O)c1ccccc1Cl (stereo not given)	6%	9%	-28%	15%	-4%	-6%	?	3.6%
Cc1cccc(OCCCC(=O)N2CCCCCC2)c1C	-19%	/	-26%	-4%	-2%	/	/	/
CC(=O)n1cc([C@@H]2C=C(C(=O)NCc3ccccc3)O[C@H](OCc3ccc(CO)cc3)C2)c2ccccc21	14%	/	-24%	7%	12%	/	/	/
CC[C@H](C)[C@H](NC(=O)c1ccc(Cl)cc1)C(=O)OCC(=O)c1c(N)n(C)c(=O)n(C)c1=O	/	-1%[46.1 µM]	-4%	-3%	-18%	/	14%[46.1 µM]	/
CC(On1c(-c2ccccc2)nc2ccc(Cl)cc21)C(=O)O (stereo not given)	0%	?	24%	-10%	0%	/	19%[46.1 µM]	/
CC(NC(=O)COC(=O)c1ccccc1Nc1ccccc1)c1ccccc1 (stereo not given)	9%	-3%	?	1%	0%	-8%	-6%	-0.4%
O=C(Nc1cccc(-c2nc3ccccc3[nH]2)c1)c1ccccn1	-60%	1%[46.1 µM]	9%	-14%	-25%	/	-15%[46.1 µM]	/
CCC(C)NCCCCOc1ccc(C)cc1[N+](=O)[O-] (stereo not given)	?	-2%	-17%	-26%	0%	9%	?	0.8%
Cc1ccc(S(=O)(=O)NCc2cn3ccsc3n2)c(C)c1	2%	14%	7%	13%	6%	-9%	-25%	6.5%
C/C(=N\NC(=O)CNC(=O)c1ccc(F)cc1)c1ccco1	7%	/	11%	-17%	10%	/	/	/
Cc1ccc(C(=O)N/C(=C/c2ccc(-c3cc(C(F)(F)F)ccc3Cl)o2)C(=O)NCc2cccnc2)cc1	28%	?	-26%	-9%	3%	?	?	-5.4%
Cc1cc2nc(-c3ccc(SCC(=O)Nc4ccc(S(=O)(=O)N5CCCC5)cc4)nc3)[nH]c2cc1C	?	?	0%	-2%	10%	?	12µM*	-12%
CSc1ccc(CCNC(=O)c2cccc3c2C(=O)N(C2CCCCC2)C3)cc1	9%	/	-21%	13%	-5%	/	/	/
COc1ccc(O)c(/C=N/Nc2nc(Nc3ccccc3)nc(-n3nc(C)cc3C)n2)c1	17%	13µM*	-19%	-10%	1%	?	?	3.8%
O=C(CNC(=O)c1cccs1)OCC(=O)c1ccc(Br)cc1	/	12%	-19%	-2%	2%	/	8%[46.1 µM]	/
O=C(CNC(=O)c1cccc(Cl)c1)Nc1ccc(F)c(F)c1F	-7%	/	41%[activator]	0%	-1%	/	/	/
Cc1ccc(N2CCN(C(=O)c3nn(C)c4c3CS(=O)(=O)c3ccccc3-4)CC2C)cc1 (stereo not given)	-12%	14%[46.1 µM]	-29%&-20%	11%	-8%	4%	/	-1.9%
Cc1ccc(CNc2ccc(-c3nc(C(C)C)no3)cc2[N+](=O)[O-])cc1	/	3%[46.1 µM]	7%	/	/	14%	0%[46.1 µM]	-3.3%
COc1ccccc1-n1c(SCC(=O)Nc2ccccc2F)nc2[nH]ncc2c1=O	-1%	5%	15%	-6%	2%	-11%	9%	2.1%
CCn1nnc2cc(C(=O)Nc3cc(C)ccc3C)ccc21	/	3%[46.1 µM]	-5%	/	/	-6%	/	2.0%
O=C(/C=C/c1ccco1)N1CCN(S(=O)(=O)c2cccs2)CC1	6%	6%	-26%	-14%	0%	/	0%[46.1 µM]	/
COc1ccc(/C=N\NC(=O)c2ccc(-c3ccccc3)cc2)c(OC)c1OC	10%	?	-10%	2%	4%	/	-13%	/
CCn1cc(C(=O)OCC(=O)Nc2ccc(C)c(Cl)c2)c(=O)c2ccc(C)nc21	/	14%[46.1 µM]	3%	/	/	-10%	-1%[46.1 µM]	-3.4%
CN1C(C)(C)CC(NC(=O)CCC(=O)NC2CC(C)(C)N(C)C(C)(C)C2)CC1(C)C	12%	-1%	-7%	1%	/	/	0%	/
COC(=O)c1ccccc1NC(=O)CNC(=O)c1ccco1	-7%	8%	-19%	5%	2%	1%	2%	5.8%
CC(C)(C)c1ccc(/C=C(\C#N)C(=O)Nc2ccccn2)cc1	7%	/	-6%	-5%	2%	/	/	/
CCOc1ccccc1NC(=O)COC(=O)c1cc[n+]([O-])cc1	-5%	13%[46.1 µM]	-14%	8%	0%	/	16%[46.1 µM]	/
CC1CCc2nn(CC(=O)NCc3ccco3)cc2C1 (stereo not given)	?	-4%	10%	3%	-1%	4%	1%	0.0%
COc1ccc(C)cc1NC(=O)N1CCCc2ccccc21	16%	?	-10%	-23%	-2%	/	?	/
CCc1ccc(C(=O)Nc2cccc(-c3nn[nH]n3)c2)s1	0%	4%[46.1 µM]	15%	-2%	2%	/	?	/
C=CCn1c(CNC(=O)c2ccco2)nnc1SCC(=O)c1ccc(F)cc1	-11%	10%[46.1 µM]	11%	19%	-1%	/	18%[46.1 µM]	/
COc1ccc(/C=C2\SC(=S)N(CCC(=O)NC3CCCC3)C2=O)cc1OC	7%	-11%[46.1 µM]	-10%	-4%	-1%	/	16%[46.1 µM]	/
ClCCn1cnc2c(SCc3ccccc3)ncnc21	/	?	7%	16%	/	/	0.89µM*	/
O=C(c1ccc2c(=O)n3c(nc2c1)CCCCC3)N1CCN(c2ccccc2F)CC1	-18%	/	-15%	13%	1%	/	/	/
N#C/C(=C/c1ccc(-c2ccc(C(=O)O)c(Cl)c2)o1)C(=O)NCC1CCCO1 (stereo not given)	20%	?	-5%	6%	-1%	1%	-2%	-5.2%
CCCN(CC(=O)Nc1ccccc1C)C(=O)c1cccc(-n2cnnn2)c1	1%	-18%	-5%	-2%	6%	/	-1%	/
O=C1NC(=O)C(CCOc2ccccc2)(CCc2ccccc2)C(=O)N1	/	-4%[46.1 µM]	?	1%	/	/	14%[46.1 µM]	/

Compound activity deposited in PubChem BioAssay by National Center for Advancing Translational Sciences (NCATS).
